Mtb H37Rv: Confirmatory growth inhibition assay against Mycobacterium tuberculosis H37Rv, potency (AID 1949); 100,000 tested, 1.6% active; inhibition, % at 10 µg/mL; hits with a dose series show IC50 in µg/mL; most inactive calls were filed without a number and no value below 0 was filed;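 active = confirmed in a dose series; inconclusive = about 50% or more but not retested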;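 note: bacteria grown 7 days with compound before Alamar blue readout; 0% = untreated bacteria and 100% = reference antibiotic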
The depositor's hits bear a star. An excerpt (hit frequency here may not be typical).

The opening seven compounds, ahead of the listing:
Results for COC(=O)C1=C(C)NC2=C(C(=O)CC(C)(C)C2)C1c1ccsc1 (stereo not drawn) ?
Mtb H37Rv: inactive

What do the screens show for `CCOC(=O)c1c(NC(=O)Cn2cnc3sc4c(c3c2=O)CCC(C)C4)sc(C)c1C` (stereo not drawn)?
Mtb H37Rv: inactive

Results for COc1ccc(C)cc1NC(=O)C(C)N1CCOCC1 (stereo not drawn) ?
Mtb H37Rv: inactive

Results for Cn1nc(CC(=O)Nc2ccc(Br)cc2)c2ccccc2c1=O ?
Mtb H37Rv: 42%

How did COC(=O)c1ccc(Cl)c(NC(=O)Cc2ccccc2)c1 do in these assays?
Mtb H37Rv: inactive

What do the screens show for `CN(Cc1ccccc1)C(=O)Cc1coc2ccc3ccccc3c12`?
Mtb H37Rv: 40%

How did CCCCCOc1ccc(CN2C(=O)C(=O)c3ccccc32)cc1 do in these assays?
Mtb H37Rv: 2%

The list itself, from the first entry:
Results for COC(=O)C1=C(C)NC2=C(C(=O)CC(C)(C)C2)C1c1ccsc1 (stereo not drawn) ?
Mtb H37Rv: inactive

What do the screens show for `CCOC(=O)c1c(NC(=O)Cn2cnc3sc4c(c3c2=O)CCC(C)C4)sc(C)c1C` (stereo not drawn)?
Mtb H37Rv: inactive

Results for COc1ccc(C)cc1NC(=O)C(C)N1CCOCC1 (stereo not drawn) ?
Mtb H37Rv: inactive

Results for Cn1nc(CC(=O)Nc2ccc(Br)cc2)c2ccccc2c1=O ?
Mtb H37Rv: 42%

How did COC(=O)c1ccc(Cl)c(NC(=O)Cc2ccccc2)c1 do in these assays?
Mtb H37Rv: inactive

What do the screens show for `CN(Cc1ccccc1)C(=O)Cc1coc2ccc3ccccc3c12`?
Mtb H37Rv: 40%

How did CCCCCOc1ccc(CN2C(=O)C(=O)c3ccccc32)cc1 do in these assays?
Mtb H37Rv: 2%

Results for CCS(=O)(=O)Nc1ccccc1NS(=O)(=O)CC ?
Mtb H37Rv: inactive

Results for CCn1c(SCC(=O)Nc2cc(Cl)ccc2OC)nnc1-c1ccc(C)cc1 ?
Mtb H37Rv: 2%

How did CCOC(=O)c1ccccc1NC(=O)CC1Sc2ccccc2NC1=O (stereo not drawn) do in these assays?
Mtb H37Rv: inactive

What do the screens show for `CC(C)CC(NC(=O)c1cccc(F)c1)c1ccccc1` (stereo not drawn)?
Mtb H37Rv: 1%

What do the screens show for `CCN(CC)CCCOc1ccccc1-c1ccccc1`?
Mtb H37Rv: inactive

How did O=C(c1ccc([N+](=O)[O-])cc1)N1CCC(C(=O)N2CCCC2)CC1 do in these assays?
Mtb H37Rv: 0%

What do the screens show for `COC(=O)C1=CN(CCc2ccc(OC)cc2)C=C(C(=O)OC)C1c1ccsc1`?
Mtb H37Rv: 2%

Results for Cn1cnc2cc(NCc3ccncc3)ccc21 ?
Mtb H37Rv: 1%

Results for O=C1CC(N2CCC(O)(c3ccc(Br)cc3)CC2)C(=O)N1c1ccc(Cl)cc1 (stereo not drawn) ?
Mtb H37Rv: inactive

Results for Cc1cc(Br)cc(C)c1OC(=O)c1ccccc1[N+](=O)[O-] ?
Mtb H37Rv: 3%

How did Cc1cccc(C(=O)NCc2nnc(SCC(=O)Nc3ccc(Br)c(C)c3C)n2C)c1 do in these assays?
Mtb H37Rv: inactive

How did N#Cc1cc(N2CCCC2)c([N+](=O)[O-])cc1C#N do in these assays?
Mtb H37Rv: inactive

How did O=C(NC(c1ccccc1)c1c(O)c(C(=O)O)cc2ccccc12)c1cccnc1 (stereo not drawn) do in these assays?
Mtb H37Rv: inactive

Results for Cc1cc(NS(=O)(=O)c2ccc(NC(=O)c3ccc4c(c3)OCO4)cc2)nc(C)n1 ?
Mtb H37Rv: inactive

What do the screens show for `COC(=O)c1sc(NC(=O)c2cc3ccccc3oc2=O)c(C(=O)OC)c1C`?
Mtb H37Rv: 17%

Results for Cc1cccc(-c2noc(-c3c(-c4ccccc4Cl)noc3C)n2)c1 ?
Mtb H37Rv: 8%

Results for COC(=O)c1cc2sc3ccccc3c2s1 ?
Mtb H37Rv: 17%

What do the screens show for `COc1ccc(NS(=O)(=O)c2cc(C)c(C)cc2C)cc1`?
Mtb H37Rv: inactive

Results for COc1ccc(Cn2c3ccc(Br)cc3c3nc4ccccc4nc32)cc1OC ?
Mtb H37Rv: inactive

Results for C#CCN1C(=O)C(O)(CC(C)=O)c2ccccc21 (stereo not drawn) ?
Mtb H37Rv: inactive

Results for CC1CCCN(CCCOc2ccc(Br)cc2Cl)C1 (stereo not drawn) ?
Mtb H37Rv: inactive

What do the screens show for `Cc1ccc(S(=O)(=O)N(C)c2c(C)ccc(S(=O)(=O)NCc3ccco3)c2C)cc1`?
Mtb H37Rv: inactive

Results for CC(C)CNS(=O)(=O)c1ccc(CCC(=O)N2CCc3ccccc3C2)cc1 ?
Mtb H37Rv: 3%

Results for Cc1ccc(OCCN2CC(C)OC(C)C2)c(C)c1 (stereo not drawn) ?
Mtb H37Rv: 1%

What do the screens show for `Cc1ccc(N2C(=O)CC(Sc3ccccc3C(=O)O)C2=O)c(C)c1` (stereo not drawn)?
Mtb H37Rv: inactive

What do the screens show for `Cc1ccccc1CSCCNS(=O)(=O)c1ccc(Br)cc1`?
Mtb H37Rv: 7%

What do the screens show for `COc1ccc(-c2coc3cc4oc(=O)c5c(c4cc23)CCCC5)cc1F`?
Mtb H37Rv: 2%

Results for O=C(NC(=S)Nc1cc(-c2nc3ccccc3s2)ccc1Cl)c1ccc(Cl)cc1 ?
Mtb H37Rv: inactive

How did CCOC(=O)c1ccc(COC(=O)c2cc(Br)ccc2NC(C)=O)cc1 do in these assays?
Mtb H37Rv: inactive

Results for CCOc1ccc(NC(=O)CN(c2cccc([N+](=O)[O-])c2)S(=O)(=O)c2ccccc2)cc1 ?
Mtb H37Rv: inactive

How did COc1ccc2c(c1)c(=O)oc1cc(OCc3ccc(F)cc3)ccc12 do in these assays?
Mtb H37Rv: inactive

Results for Cc1cccc(N2C(=O)C3CC(c4ccccc4)=C4C5C=CC(C6C(=O)N(c7cccc(C)c7)C(=O)C56)C4C3C2=O)c1 (stereo not drawn) ?
Mtb H37Rv: 27%

What do the screens show for `COc1ccc(NC(=O)C(=S)N2CCOCC2)cc1`?
Mtb H37Rv: inactive

How did COCc1nnc(NS(=O)(=O)c2ccc(NC(C)=O)cc2)s1 do in these assays?
Mtb H37Rv: 5%

What do the screens show for `CCN(CC)S(=O)(=O)c1ccc(C(=O)Nc2ccccc2-c2nc3ccccc3s2)cc1`?
Mtb H37Rv: inactive

Results for N#Cc1ccccc1Sc1ccccc1C(=O)Nc1ccc(Cc2ccncc2)cc1 ?
Mtb H37Rv: 1%

Results for CC(C)(c1ccccc1)c1ccc(OCC(=O)Nc2ccc3c(c2)OCO3)cc1 ?
Mtb H37Rv: inactive

What do the screens show for `O=S(=O)(Nc1ccc2ccccc2c1)c1cccc(C(F)(F)F)c1`?
Mtb H37Rv: inactive

How did Cc1ccc(C2=NN=C(NC(=O)c3ccc(Cl)cc3)SC2)cc1 do in these assays?
Mtb H37Rv: inactive

What do the screens show for `CCc1nc(C)cn1S(=O)(=O)c1ccc(Cl)c(Cl)c1Cl`?
Mtb H37Rv: inactive

How did CC(=O)Oc1cccc(/C=C/c2ccc3ccccc3n2)c1 do in these assays?
Mtb H37Rv: 10%

What do the screens show for `Cc1ccccc1OC(C)C(=O)NCc1ccccc1` (stereo not drawn)?
Mtb H37Rv: 12%

Results for O=S(=O)(Nc1ccc(F)cc1)c1cccc(Cl)c1 ?
Mtb H37Rv: inactive

What do the screens show for `O=C(Nc1ccccc1N1CCN(C(=O)c2ccc(Cl)cc2)CC1)c1ccc(Br)o1`?
Mtb H37Rv: 10%

Results for COc1ccc(C(=O)N2CCC(C(=O)Nc3ccc(Br)cc3F)CC2)cc1OC ?
Mtb H37Rv: inactive

Results for O=c1[nH]c(SCc2ccc(Br)cc2)nc2ccccc12 ?
Mtb H37Rv: inactive

How did CCCSc1nnc2n(-c3ccc(OC)cc3)c(=O)c3c4c(sc3n12)COC(C(C)C)C4 (stereo not drawn) do in these assays?
Mtb H37Rv: 7%

Results for C=CCc1cc(OC)ccc1OCCCNCCOC ?
Mtb H37Rv: inactive

How did O=C(O)c1ccccc1SC1CC(=O)N(c2ccc3c(c2)OCO3)C1=O (stereo not drawn) do in these assays?
Mtb H37Rv: inactive

How did O=C(CSc1ccccc1)Nc1cccc(C(=O)Nc2nccs2)c1 do in these assays?
Mtb H37Rv: inactive

What do the screens show for `CCC(C)C(=O)Nc1ccc(Cl)cc1C(=O)O` (stereo not drawn)?
Mtb H37Rv: inactive

How did CC(=O)C1=C(c2ccccc2)NC(=O)NC1c1cccs1 (stereo not drawn) do in these assays?
Mtb H37Rv: inactive

How did COC(=O)c1ccc(OC(=O)c2c(F)c(F)c(F)c(F)c2F)cc1 do in these assays?
Mtb H37Rv: 9.1µg/mL*

What do the screens show for `O=C(C1CCCN(S(=O)(=O)c2ccccc2[N+](=O)[O-])C1)N1CCN(c2ccccc2)CC1` (stereo not drawn)?
Mtb H37Rv: inactive

Results for CC1=C(C(=O)Nc2ccccc2)C(c2cccnc2)C(C#N)=C(SCC(=O)Nc2cc(C)on2)N1 (stereo not drawn) ?
Mtb H37Rv: 4%

How did O=C(NCCC1=CCCCC1)c1ccc2c(c1)OCO2 do in these assays?
Mtb H37Rv: inactive

Results for CCOC(=O)c1ccccc1NC(=O)CSCc1ccccc1 ?
Mtb H37Rv: inactive

How did Cc1cc(NC(=O)c2ccc3c(c2)C(=O)N(C(C)(C)C)C3=O)no1 do in these assays?
Mtb H37Rv: inactive

Results for Cc1ccc(SCC(=O)Nc2cc(C)on2)cc1 ?
Mtb H37Rv: inconclusive

Results for CN1CCN(C(=S)c2ccc(F)cc2)CC1 ?
Mtb H37Rv: inactive

How did Cc1cc(NC(=O)C(=O)NCc2cccnc2)ccc1Br do in these assays?
Mtb H37Rv: inactive

Results for COc1ccc(/C=C/C=C(/C#N)c2cccc(F)c2)cc1 ?
Mtb H37Rv: 2%

Results for CCOc1ccc(C(C)NC(=O)c2cccc(Br)c2)cc1 (stereo not drawn) ?
Mtb H37Rv: inactive

How did O=C1c2cccc3c(N4CCCCC4)ccc(c23)C(=O)N1c1ccccc1O do in these assays?
Mtb H37Rv: 5%

What do the screens show for `COc1ccc(NS(=O)(=O)c2ccc(NC(=O)c3cccc(C)c3)cc2)cc1`?
Mtb H37Rv: 2%

What do the screens show for `Cc1cccc(C(=O)Nc2sc3c(c2C(=O)N2CCCCCC2)CCC3)c1`?
Mtb H37Rv: inactive

How did Cn1cc(CNC(=O)c2cc(-c3ccncc3)nc3ccc(Br)cc23)cn1 do in these assays?
Mtb H37Rv: inactive

How did Cc1sc2ncnc(Oc3ccc(F)c(Cl)c3)c2c1C do in these assays?
Mtb H37Rv: inactive

How did NC(=O)CN(c1cccc(Cl)c1Cl)S(=O)(=O)c1ccccc1 do in these assays?
Mtb H37Rv: inactive

How did COc1ccc(C(=O)N2CCC(C(=O)O)CC2)cc1 do in these assays?
Mtb H37Rv: 3%

Results for CN(C(=O)c1cc2ccccc2cc1O)C1CCCCC1 ?
Mtb H37Rv: inactive

Results for Cc1cc(Cl)ccc1N(CC(=O)N1CCCCCC1)S(C)(=O)=O ?
Mtb H37Rv: inactive

How did O=C(CN(c1ccc(Cl)c(Cl)c1)S(=O)(=O)c1ccccc1)NCCOc1ccc(F)cc1 do in these assays?
Mtb H37Rv: 3%

Molecules above that contain a furan ring, fused or not (four):
What do the screens show for `CN(Cc1ccccc1)C(=O)Cc1coc2ccc3ccccc3c12`?
Mtb H37Rv: 40%

What do the screens show for `Cc1ccc(S(=O)(=O)N(C)c2c(C)ccc(S(=O)(=O)NCc3ccco3)c2C)cc1`?
Mtb H37Rv: inactive

What do the screens show for `COc1ccc(-c2coc3cc4oc(=O)c5c(c4cc23)CCCC5)cc1F`?
Mtb H37Rv: 2%

What do the screens show for `O=C(Nc1ccccc1N1CCN(C(=O)c2ccc(Cl)cc2)CC1)c1ccc(Br)o1`?
Mtb H37Rv: 10%

(list continues)
What do the screens show for `COc1nc(NCc2ccc(Cl)cc2)nc(OC)n1`?
Mtb H37Rv: inactive

Results for Cc1onc(-c2ccccc2)c1C(=O)NCCc1ccc(F)cc1 ?
Mtb H37Rv: inactive

Results for CC(C)OCCCNC(=O)Cn1cnc2c1c(=O)n(C)c(=O)n2C ?
Mtb H37Rv: inactive

How did O=C(Nc1ccc(Cl)cc1C(=O)c1ccccc1)c1ccco1 do in these assays?
Mtb H37Rv: inactive

Results for COc1ccc(NC(=O)c2ccc(N3CCCCCC3)c([N+](=O)[O-])c2)cc1 ?
Mtb H37Rv: inactive

How did O=C(CCN1C(=O)C2C3CCC(C3)C2C1=O)Nc1ccc(Cl)cc1Cl (stereo not drawn) do in these assays?
Mtb H37Rv: inactive

How did O=C(Oc1c(Cl)cc(Cl)c2cccnc12)c1cccc([N+](=O)[O-])c1 do in these assays?
Mtb H37Rv: 6.1µg/mL*

How did O=C(NC(=S)Nc1cccc(Cl)c1N1CCOCC1)c1ccco1 do in these assays?
Mtb H37Rv: inactive

What do the screens show for `COc1ccc(CNC(=O)CN(Cc2ccc(C)cc2)S(=O)(=O)c2ccc(C)cc2)cc1`?
Mtb H37Rv: inactive

How did CCN(CC)c1ccc(NC(=O)c2ccc(C(C)(C)C)cc2)c(C)c1 do in these assays?
Mtb H37Rv: 9%

Results for N#Cc1c(C(F)(F)F)cc(-c2ccccc2)nc1SCc1ccccc1 ?
Mtb H37Rv: 2%

Results for O=C(COC(=O)CSCC(=O)Nc1cccc2ccccc12)Nc1ccc(Br)cn1 ?
Mtb H37Rv: 1%

How did COc1cccc(C(=O)N2CCN(Cc3ccccc3C(F)(F)F)CC2)c1OC do in these assays?
Mtb H37Rv: 3%

Results for Cc1nc2c3c4c(sc3ncn2n1)CC(C(C)(C)C)CC4 (stereo not drawn) ?
Mtb H37Rv: 7%

Results for COc1cc(OC)c(C(=O)N2CCCC2)cc1OC ?
Mtb H37Rv: inactive

Bioassay records as filed in PubChem.
